Screening data (PubChem)
PABP polyA inh: PABP-poly(A) binding inhibition; PABP-poly(A) RNA binding, fluorescence polarization; inhibition, % at 35 µM; 290,000 compounds, 1% hits; AID 2014;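 active = 50% or more with normal probe brightness, or confirmed in later tests; about a fifth of its hits are not listed in these tables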;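 note: calls also rest on retests at 20 µM and on dose response follow-up; controls were probe without protein and protein plus probe with vehicle; some compounds called inactive have numbers as strong as hits; many hits fall short of the cut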
Target sequence (P11940 whole entry, looked up): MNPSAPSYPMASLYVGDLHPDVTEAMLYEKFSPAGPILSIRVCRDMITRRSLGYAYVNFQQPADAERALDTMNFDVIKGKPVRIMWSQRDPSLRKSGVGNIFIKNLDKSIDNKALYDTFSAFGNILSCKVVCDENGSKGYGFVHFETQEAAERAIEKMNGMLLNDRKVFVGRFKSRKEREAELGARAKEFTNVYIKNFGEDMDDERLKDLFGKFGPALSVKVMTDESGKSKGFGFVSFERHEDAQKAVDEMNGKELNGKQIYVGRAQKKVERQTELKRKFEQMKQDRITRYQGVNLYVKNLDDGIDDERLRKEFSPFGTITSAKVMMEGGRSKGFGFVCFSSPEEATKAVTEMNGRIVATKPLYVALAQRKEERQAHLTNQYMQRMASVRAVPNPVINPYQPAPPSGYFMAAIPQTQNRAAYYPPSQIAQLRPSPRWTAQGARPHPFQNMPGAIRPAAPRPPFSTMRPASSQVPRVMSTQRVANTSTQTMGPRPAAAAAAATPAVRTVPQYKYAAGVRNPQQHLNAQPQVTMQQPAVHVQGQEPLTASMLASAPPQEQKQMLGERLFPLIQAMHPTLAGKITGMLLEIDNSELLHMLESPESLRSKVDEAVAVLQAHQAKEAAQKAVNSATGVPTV
HIV Env fusion: blocks HIV Env-driven cell-cell fusion | 360,000 compounds, 1.1% hits | AID 651610 | HeLa-JRFL Env/CEM21 cell fusion, luciferase | inhibition, % at 12.3 µM;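 active = mean replicate inhibition score of at least 50 and every replicate individually at or above 50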;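 note: 0% = plate neutral controls and 100% = maraviroc near 300 nM; one replicate is shown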
MT1-MMP act inh: inhibitors of human MT1-MMP activation; GFP/RFP ratio change, % at 20 µM; HT1080 RFP-PRO-GFP cells, GFP/RFP ratio fluorescence, overnight; percent of plate control window, DMSO zero; AID 651647; 360,000 compounds, 0.061% hits;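 active = GFP/RFP ratio change of at least 30% with cell ATP level not reduced by more than half and red fluorescence within 50% of control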; note: strong numbers were not always called active
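system = RFP-PRO-GFP reporter HT1080 cells | dosing = 20 µM single dose, 1% DMSO | timing = overnight cell settling, then overnight compound exposure, 37 °C, 5% CO2 | read-out basis = GFP/RFP fluorescence ratio | controls = DMSO and RFP-L50D-GFP cell wells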
Yeast UUG start: alters start codon recognition fidelity in yeast; S. cerevisiae UUG-firefly luciferase reporter, luminescence/redox ratio; activity score, % at 18.7 µM; 350,000 compounds, 0.13% hits; AID 602363;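 active = replicate mean at a twofold rise or more, about +100% in these data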;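 note: firefly luciferase made from a UUG start codon reports start codon fidelity; reporter light over untreated wells divided by growth signal over untreated wells; some hits fall short of that in this replicate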
Rce1 inhib: yeast Ras-converting enzyme inhibition; AID 2563; 290,000 compounds, 0.27% hits; calls only; yeast membranes, quenched prenylated peptide cleavage fluorescence;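 active = fall in fluorescence gain of 50% or more versus controls, with final raw signal at or below 3038400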;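 note: plate controls were neutral control wells for no effect and wells lacking membranes for full effect; tested at 10 µM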
Target sequence (Q03530 whole entry, looked up): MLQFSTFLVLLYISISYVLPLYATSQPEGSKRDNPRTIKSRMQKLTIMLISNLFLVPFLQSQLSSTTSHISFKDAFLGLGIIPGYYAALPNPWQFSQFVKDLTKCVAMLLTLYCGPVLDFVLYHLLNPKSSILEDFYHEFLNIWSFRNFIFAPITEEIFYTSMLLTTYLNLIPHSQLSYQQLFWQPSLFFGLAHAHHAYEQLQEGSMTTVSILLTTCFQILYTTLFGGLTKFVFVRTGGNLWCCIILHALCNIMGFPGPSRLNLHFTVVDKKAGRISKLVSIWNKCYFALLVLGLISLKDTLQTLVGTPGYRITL
eIF4H inh: inhibitors of RNA binding by human eIF4H. eIF4H fluorescence polarization binding assay. inhibition, % at 35 µM. 290,000 compounds, 0.94% hits. AID 2012;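 active = 50% or more with normal probe brightness, or confirmed in later tests; about a fifth of its hits are not listed in these tables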;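 note: calls also rest on retests at 20 µM and on dose response follow-up; 0% = protein and probe with vehicle and 100% = probe without protein; strong numbers were not always called active; many hits fall short of the cut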
CSC inhib: cancer stem cell inhibition | cancer stem cell-like cells viability, luminescence | inhibition, % at 7.5 µM | 300,000 compounds, 1.1% hits | AID 2717;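 active = mean at 75% or more and at least half the replicates too; tested in HMLE shEcad cells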;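 note: 0% = median of negative and 100% = median of positive control wells; the first replicate is given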
eIF4H inh retest: recorded beside eIF4H inh, whose call it bears; inhibition, %; compound at 20 µM; confirmation average;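 mean of two retest wells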
PABP polyA inh retest: also measured in PABP polyA inh; calls as there; inhibition, %; compound at 20 µM; confirmation repeats;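 mean of two retest wells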
MT1-MMP act inh RFP: recorded beside MT1-MMP act inh, whose call it bears; RFP signal change, %; measured here: RFP expression control read;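 0 = vehicle wells; hits needed this value within 50% of zero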
* marks the source's active call; other numbers are inactive results; i = inactive; . = no result given; & = joins results of further samples; [ ] = remark or other dose.

SMILES	PABP polyA inh	HIV Env fusion	MT1-MMP act inh	MT1-MMP act inh RFP	Yeast UUG start	Rce1 inhib	eIF4H inh	CSC inhib	others
CC(C)(C)n1ncc(Oc2ccccc2[N+](=O)[O-])c(Cl)c1=O	0.2	.	-5.4	-18.4	.	i	3.7	-5.3
CCN(C(=O)COC(=O)/C(C#N)=C/c1cc(C)n(CCOC)c1C)c1c(N)n(Cc2ccccc2)c(=O)[nH]c1=O	.	5.6	-3.9	1.7	-2.1	.	.	.
O=C(NCc1cccc(Cl)c1)NCc1cccc(Cl)c1	-2.8	11.1	.	.	.	i	-5.2	6.2
CC1CCC(C(C)C)C(OCC(O)CNC(C)c2ccccc2)C1 (stereo not given)	-5.0	43.7	-9.6	-9.3	.	i	4.3	17.5
CC(C)C[C@@H](CC#N)N1CCN(CCc2ccccc2)CCC1=O	8.1	-36.6	-3.6	0.3	-0.5	i	4.7	-4.2
CCN1C(=O)c2ccc(C(=O)Nc3nccs3)cc2C1=O	3.0	.	-7.2	0.5	-10.1	i	6.4	.
COc1cc(=O)[nH]c(SC(C)C(=O)Nc2cccc3ccccc23)n1 (stereo not given)	13.1	-3.5	-2.5	0.0	-12.7	.	1.5	-3.1
O=C(NCCc1ccccc1)c1cc2sccc2n1Cc1ccccc1	-7.9	-21.7	-15.8	-19.4	-17.0	i	-15.5	12.7
O=S(=O)(Nc1ccccc1)c1ccc(-c2cnc(C3CC3)o2)cc1	0.9	9.2	-1.4	-13.5	-16.0	i	-11.8	55.4
Cc1noc(C)c1S(=O)(=O)N(C)C[C@@H]1OCc2cnnn2CCCC(=O)N([C@@H](C)CO)C[C@H]1C	.	-12.0	-5.1	-1.9	-2.9&2.5	.	.	.
CC1=CCC(C(=O)O)(C(=O)N/N=C/c2cccs2)C(c2ccc(Cl)cc2)C1 (stereo not given)	-5.2	.	2.0	-1.4	-11.0	i	-12.9	-4.3
CCOC(=O)CN1C(=O)N[C@@H](c2cccc(C(F)(F)F)c2)C(C(C)=O)=C1C	.	.	-0.1	0.9	-13.5	i	.	15.1
CC1(C)Cc2c(C#N)c(N3CCN(C(=O)c4ccccc4)CC3)nc(-c3ccco3)c2CS1	-6.5	.	-55.8	2.0	-19.2	.	61.6	-17.9	eIF4H inh retest=-2.8;PABP polyA inh retest=9.7
O=C(CNC(=O)c1ccccc1)N/N=C/c1ccccc1Cl	6.9	-2.9	0.4	0.0	.	i	2.2	-3.3
O=C(O)CSc1cccc2cccc(C(=O)O)c12	6.8	-10.9	2.5	1.7	-8.1	i	2.1	-8.7

In the list so far, these have a halogen.
SMILES	PABP polyA inh	HIV Env fusion	MT1-MMP act inh	MT1-MMP act inh RFP	Yeast UUG start	Rce1 inhib	eIF4H inh	CSC inhib	others
CC(C)(C)n1ncc(Oc2ccccc2[N+](=O)[O-])c(Cl)c1=O	0.2	.	-5.4	-18.4	.	i	3.7	-5.3
O=C(NCc1cccc(Cl)c1)NCc1cccc(Cl)c1	-2.8	11.1	.	.	.	i	-5.2	6.2
CC1=CCC(C(=O)O)(C(=O)N/N=C/c2cccs2)C(c2ccc(Cl)cc2)C1 (stereo not given)	-5.2	.	2.0	-1.4	-11.0	i	-12.9	-4.3
CCOC(=O)CN1C(=O)N[C@@H](c2cccc(C(F)(F)F)c2)C(C(C)=O)=C1C	.	.	-0.1	0.9	-13.5	i	.	15.1
O=C(CNC(=O)c1ccccc1)N/N=C/c1ccccc1Cl	6.9	-2.9	0.4	0.0	.	i	2.2	-3.3

Next compounds follow.
SMILES	PABP polyA inh	HIV Env fusion	MT1-MMP act inh	MT1-MMP act inh RFP	Yeast UUG start	Rce1 inhib	eIF4H inh	CSC inhib	others
O=C(Nc1ccc(S(=O)(=O)NC2=NCCCCC2)cc1)c1ccc(=O)[nH]c1	4.1	-10.8	1.1	1.7	5.5	i	1.9	-11.4
CC1CCCC(NC(=O)c2nn(C)c3c2CS(=O)(=O)c2ccccc2-3)C1C (stereo not given)	-1.0	6.4	7.3	1.1	-10.6	i	-6.5	-6.8
COc1ccc(Cl)cc1S(=O)(=O)n1c([N+](=O)[O-])cnc1C	-1.7	-0.9	0.4	-2.6	-17.1	i	-12.4	-10.6
COc1cc2c(cc1OC)CN(CCOc1ccc(Br)cc1)CC2	-5.6	6.6	0.6	0.8	-6.8	i	5.6	2.6
FC(F)(F)c1cccc(NC(=S)Nc2cccc(Cl)c2)c1	-2.5	.	1.3	4.1	-23.8	i	-4.6	52.9
Cc1ccccc1OCC(=O)NCC(c1ccco1)N1CCCCC1 (stereo not given)	-4.1	1.7	-0.1	-1.4	-3.4	i	-4.9	-4.9
O=C(/C=C/c1cccc(F)c1)NNC(=O)c1ccncc1	.	10.5	-7.1	1.7	-20.3	i	.	44.5
Cc1nc(SCC(=O)Nc2cc(C)on2)c2c(C)c(C)sc2n1	-11.1	.	-0.8	1.7	.	i	-15.0	-4.7
CC(C)(C)C(=O)Nc1ccc(S(=O)(=O)NC2=NCCCCC2)cc1	.	-15.3	-3.0	1.4	-18.0	.	.	.
CC(=O)Nc1ccc(NC(=O)CNC(=O)c2sc3ccccc3c2Cl)cc1	.	-0.7	2.0	4.0	-9.8	i	.	-7.6
O=C(Nc1nc(-c2ccccn2)cs1)C12CC3CC(CC(O)(C3)C1)C2	7.0	-39.7	-3.5	-0.2	.	i	7.5	-2.1
CN1C(=O)Cc2cc(S(=O)(=O)Nc3ccc(N4CCOCC4)cc3)ccc21	-19.6	-9.3	-2.3	2.5	7.3	i	-8.9	-7.7
CCn1c(=O)c2sccc2n(CC(=O)NC2CCCC2)c1=O	2.0	16.1	4.3	6.9	-4.6	i	-13.5	-4.4
Cc1cccc2cc(C3CC(c4cccs4)=NN3S(C)(=O)=O)c(Cl)nc12 (stereo not given)	12.6	14.8	-10.1	-15.0	-19.3	i	-9.0	26.0
Cc1ccc2sc(NC(=O)c3ccc(N4C(=O)CCC4=O)cc3)nc2c1C	-4.3	9.9	4.2	0.3	-3.0	i	-3.1	-11.2
COc1ccc(S(=O)(=O)N(C)C[C@H]2OCCCC[C@@H](C)Oc3ccc(NC(=O)CCC(F)(F)F)cc3C(=O)N([C@H](C)CO)C[C@@H]2C)cc1	.	-1.3[16.7 µM]	3.2	4.5	8.6&-4.5	.	.	.
CC(C)CN(C(=O)COC(=O)c1ccc([N+](=O)[O-])o1)C1CCS(=O)(=O)C1 (stereo not given)	77.0	3.6	-4.8	-2.5	-0.9	i	-4.4	0.5	eIF4H inh retest=4.6;PABP polyA inh retest=7.3
O=C(Cn1nnc(-c2ccccc2F)n1)Nc1ccc(S(=O)(=O)NC2CCCC2)cc1	-2.9	.	-1.2	-1.5	-25.9	i	-0.7	.
O=c1cc(O)n(-c2ccccc2)c(=S)[nH]1	2.0	.	-6.2	11.0	-17.2	i	-10.0	7.1
CC(C)(C)NC(=S)NNC(=O)c1ccccc1Cl	-4.4	.	3.0	2.1	.	i	8.8	-10.4
O=[N+]([O-])c1ccc(N2CCN(CC3CCCCC3)CC2)cc1	21.1	-14.6	4.7	-6.6	-23.0	i	3.6	-10.0
O=C(CN1C(=O)C(=O)N(C2CCCC2)C1=O)Nc1ccc(N2CCOCC2)cc1	0.0	-9.5	11.2	7.6	.	i	-1.8	-7.3
COc1ccc([N+](=O)[O-])cc1N(CC(=O)N1CCCC1)S(C)(=O)=O	-5.0	-56.0	7.3	5.0	.	i	0.8	-7.5
COc1ccc(CCC(=O)N2CCc3ccccc32)cc1	-5.8	-139.5	6.3	1.4	-12.4	i	-2.1	.
Cc1ccc(C)c(S(=O)(=O)Nc2nc3ccc(S(N)(=O)=O)cc3s2)c1	-12.0	15.0	6.2	6.1	.	i	4.5	1.2
Cc1ccc(C)c(OCCCCN2CCCCC2)c1	2.6	-16.9	1.9	2.1	-1.1	i	0.1	-3.3
COc1ccccc1NS(=O)(=O)c1cccc(C(=O)N/N=C(\C)c2ccc3c(c2)OCCO3)c1	6.8	15.6	-1.5	-2.8	-15.4	i	-9.8	5.6
Cc1ccc(SCC(=O)O/N=C(\N)c2cccnc2)cc1	6.9	.	-3.9	0.5	-19.0	.	6.7	-10.5
O=C(N/N=C(\Cc1ncc[nH]1)c1ccccc1)c1ccncc1	-18.8	13.0	0.5	-0.1	-16.2	i	2.4	78.5*
CC(C(=O)Nc1ccc(F)c(F)c1F)N1CCCCCC1 (stereo not given)	3.5	13.5	7.5	1.4	-2.8	i	4.9	-1.8
CN(C)c1ccc(Sc2nnc(NC(=O)Nc3ccc(Cl)cc3Cl)s2)cc1	8.7	5.0	12.6	1.3	-14.8	i	0.1	-10.1
CCCN(CC(=O)Nc1ccccc1C)C(=O)CCN1C(=O)c2cccc([N+](=O)[O-])c2C1=O	.	2.1	-3.1	-0.4	2.1	i	.	12.3
Cc1sc2ncnc(N3CCC(C(=O)Nc4nc(-c5ccc(F)cc5)cs4)CC3)c2c1C	.	-1.6	-9.4	-22.4	4.7	i	.	35.7
COc1ccc(-c2nc(CNS(=O)(=O)c3cc(OC)ccc3OC)cs2)cc1	-3.0	-28.5	0.4	0.0	-3.1	i	-3.9	0.8
CC12c3ccccc3C(c3ccccc31)C1C(=O)N(c3cccnc3)C(=O)C12 (stereo not given)	3.4	1.6	-1.2	3.3	2.9	i	-3.9	5.1
COc1ccc(/C=C/C(=O)Nc2ccc(C(C)=O)cc2)cc1S(=O)(=O)N1CCOCC1	.	0.3	2.0	4.4	-15.5	.	.	.
O=C(COc1ccccc1[N+](=O)[O-])NCC1(N2CCOCC2)CCCCC1	.	11.5	2.6	-3.3	-17.7	.	.	1.5
COc1ccc(C(=O)CC(=O)C(=O)Nc2cc([N+](=O)[O-])ccc2OC)cc1	-3.6	.	-6.1	-5.9	.	i	9.6	3.7
CN(C)C(=O)CS(=O)(=O)c1ccc(Cl)cc1	-3.9	3.0	-0.8	3.7	.	i	-4.7	-6.0
CCN1CCCC1CNC(=O)c1[nH]c2ccc(OC)cc2c1C (stereo not given)	1.0	-5.4	-0.2	1.9	1.5	i	-7.9	-6.1
CC(C)C[C@@H](CO)N1CCN(Cc2ccc(O)cc2)CCC1=O	1.4	-12.2	3.0	5.8	-11.7	i	-0.8	-15.3
Cc1ccccc1CSCC(=O)NCc1ccco1	-4.5	18.9	-7.1	-0.4	.	i	9.1	-15.8
COc1cc(C(=O)OCCCN2CCOCC2)cc(OC)c1OC	.	-18.5	-1.7	0.3	-9.1	.	.	.
O=C(CCC1COc2ccccc2O1)NCc1ccco1 (stereo not given)	-2.7	.	5.5	10.0	-2.4	i	0.2	3.7
Cc1ccccc1N1C(=O)c2sc3nc4c(c(=O)n3c2C1=O)CCC4	4.7	.	-4.4	-0.1	-23.0	i	-7.6	-21.6
Oc1ccc(/C=N/N(c2ccccc2)c2ccccc2)c(O)c1O	.	-1.2	4.5	7.1	-15.3	i	.	27.4
COc1cccc(C(c2nnnn2-c2c(C)cccc2C)N2CCN(C/C=C/c3ccccc3)CC2)c1OC (stereo not given)	.	-38.6	-6.5	-7.7	0.7	.	.	.

Some of these compounds in order of length of the SMILES, lowest first.
SMILES	PABP polyA inh	HIV Env fusion	MT1-MMP act inh	MT1-MMP act inh RFP	Yeast UUG start	Rce1 inhib	eIF4H inh	CSC inhib	others
Cc1ccccc1CSCC(=O)NCc1ccco1	-4.5	18.9	-7.1	-0.4	.	i	9.1	-15.8
Oc1ccc(/C=N/N(c2ccccc2)c2ccccc2)c(O)c1O	.	-1.2	4.5	7.1	-15.3	i	.	27.4
COc1ccc(C(=O)CC(=O)C(=O)Nc2cc([N+](=O)[O-])ccc2OC)cc1	-3.6	.	-6.1	-5.9	.	i	9.6	3.7

The list is partial; count on the stated rates, not on these rows.
